# Screens deposited in PubChem BioAssay by several laboratories.
# BJeLR lethal = MLPCN primary cell-based screen for lethality selective to Ras in HRASV12 cells; BJeLR (HRASV12) viability, CellTiter-Glo ATP luminescence, 48 h; reference of the scale not given here; inhibition, % (test concentration not listed); 300,000 tested, 0.17% active; AID 1554, 2009;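 active = replicate mean above 50%; inconclusive = above 50% but judged a plate artefact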;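 note: 50 nL library stock added to about 25 µL; numbers are from one replicate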
# Mtb hypoxia inh = PubChem AID 1159583. M. tuberculosis hypoxia-regulated fluorescent reporter, fluorescence. fluorescence inhibition, % (no concentration beside the values). 300,000 tested, 0.1% active;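 active = 35 to 45% if threefold the growth effect, above 45% if 1.5-fold the growth effect; inactive = the rest, general growth blockers included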;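 note: wells of about 50 µL received 100 nL stock; 0% = vehicle wells and 100% = reference inhibitor wells; whole bacteria with a GFP reporter of the hypoxia response; strong numbers were not always called active; many hits fall short of the cut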
# Sa ugtP lethal = growth inhibition of ugtP-null S. aureus, primary screen, RN4220 ugtP deletion, OD600; 16 h; some inactives read as strong as hits; growth inhibition, % (concentration not given with the values); 330,000 tested, 0.54% active;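 active = z-score under -3 and OD600 up to 0.15 on both plates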;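 note: plate controls were untreated wells for no effect and antibiotic for full effect; wells of about 80 µL received 100 nL stock; the first replicate is given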
# RN4220 kill = growth inhibition of S. aureus RN4220, primary screen, OD600. 16 h. inhibition, % (test concentration not listed). 330,000 tested, 0.33% active. AID 1259311, 2017;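 active = z-score of -3 or lower and OD600 up to 0.18 on both plates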;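 note: plate controls were untreated cells for no effect and reference antibiotic for full effect; stock transfer was 100 nL into about 80 µL; one replicate is shown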
# PrP UTR inh = inhibition of PrP 5' UTR reporter expression. 340,000 tested, 0.35% active. cell-based PrP 5' UTR mRNA reporter, plate reader. inhibition, % (no concentration beside the values);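 active = every replicate at 50% or more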;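 note: 0 = median of the neutral control wells; tested in H4 reporter cells; numbers are from one replicate; inactives centre near -14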
# Autofluor counter = counter-screen for toxin protease inhibitors: compound fluorescence; compound autofluorescence counterscreen, microsphere flow cytometry; active compounds read high; AID 624483; fluorescence intensity (test concentration not listed); 360,000 tested, 3.1% active;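 active = at least 3 SD above the mean of all compounds, about 16000 in these data; inconclusive = too few beads counted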;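 note: 100 nL of 1 mM stock went into each well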
# Mtb hypoxia inh growth = recorded beside Mtb hypoxia inh, whose call it bears; growth inhibition, %; measured here: M. tuberculosis growth (absorbance);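 0% = vehicle and 100% = reference antibiotic; read after six days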
# * marks the source's active call; other numbers are inactive results; u = inconclusive; x = not tested or not shown.
Molecule	BJeLR lethal	Mtb hypoxia inh	Mtb hypoxia inh growth	Sa ugtP lethal	RN4220 kill	PrP UTR inh	Autofluor counter
CC(=O)Nc1ccc(SCC(=O)c2cc(C)n(-c3ccccc3)c2C)cc1	12.9	x	x	x	x	34.6	2666
O=C(COC(=O)c1cc2ccccc2oc1=O)c1cccc([N+](=O)[O-])c1	-0.7	1.5	9.6	3.2	2.0	-23.3	2132
Cc1cccc(-n2c(-c3ccc(Br)o3)n[nH]c2=S)c1	-2.9	0.0	19.2	-1.8	1.5	-4.7	6711
CC(/C=C/c1ccccc1F)=NNC(=O)c1ccc(Cl)cc1	x	-2.5	-2.8	2.4	1.6	x	x
CC(=NNC(=O)c1ccccc1)c1ccc(C)c([N+](=O)[O-])c1	x	7.2	1.0	1.6	1.0	x	x
O=S(=O)(NC(=NCc1ccccc1)c1ccccc1F)c1ccccc1	0.5	1.2	-1.1	4.2	5.3	-21.2	3803
CCC(C)(C)NC(=O)C(c1ccccc1)N(Cc1cccs1)C(=O)Cn1nnc2ccccc21 (configuration not stated)	2.5	15.1	11.9	-1.4	5.6	-33.2	3467
Cc1ccc(NS(=O)(=O)c2cc(C(=O)NCc3cccnc3)ccc2C)cc1	-2.1	10.6	9.7	-4.4	-2.3	-6.6	6334
CCOC(=O)C1=C(c2ccccc2)NC(=O)NC1c1cccc(OC)c1OC (configuration not stated)	0.1	9.0	7.5	9.8	9.4	-8.2	4327
CN(C)c1ccc(C(=O)OCc2ccccc2)cc1	-1.3	17.6	5.1	11.4	3.4	-51.6	x
O=C(C1=COCCO1)N1CCN(S(=O)(=O)c2cccc(Cl)c2Cl)CC1	1.4	-1.0	-2.0	1.4	0.9	-2.3	4007
Cc1c(C)n(Cc2ccccc2)c2ncnc(N)c12	3.7	11.4	15.3	-1.8	4.0	-7.9	4175
CCc1nc(-c2ccc(C)nc2OC)no1	5.8	10.8	8.5	-4.8	-7.5	-16.3	2444
Cc1ccc(NC(=O)CSc2nnc(-c3cnccn3)n2-c2ccccc2)cc1	14.0	2.3	-2.6	9.0	3.7	-8.5	16733*
N#Cc1sc2nc(-c3cccs3)cc(-c3ccc(F)cc3)c2c1N	3.3	4.1	-5.3	-19.6	5.8	-34.3	9276
CCOC(=O)COc1ccc2c(c1)c(C(C)=O)c(C)n2-c1ccc(OC)cc1	3.3	-0.6	9.4	3.2	-0.9	-3.2	4143
O=C(c1cccc(F)c1)N1CCN(C(=O)c2cc3nc(-c4ccco4)cc(C(F)(F)F)n3n2)CC1	5.1	-2.0	4.1	5.5	2.8	-11.7	3893
N#Cc1ccc(-c2nc3ccc(Br)cc3c(=O)n2O)cc1	-6.3	3.6	-4.9	10.9	24.6	-22.5	4160
O=C(Cc1c(F)cccc1Cl)NNC(=O)c1ccncc1	x	12.9	13.2	8.4	1.6	-16.2	3513
CC(C)CN1CCC(=O)N(CCC#N)CC1	-5.6	6.8	5.4	-12.3	3.6	-4.5	2906
Cc1cc(C(=O)N/N=C/C(Cl)=C/c2ccccc2)c(C)o1	-17.8	x	x	x	x	-27.3	3797
COc1ccc2cc(C[C@@H]3CC[C@@H](CO)O3)ccc2c1	x	1.6	2.0	11.4	1.4	-111.8	3768
CC(=O)c1ccc(NC(=S)NC(=O)/C=C/c2ccc(F)cc2)cc1	3.7	10.2	6.6	9.3	1.3	-15.1	3155
O=C(OCC(=O)N1CCCC1)c1cc([N+](=O)[O-])ccc1Cl	-13.9	3.0	10.1	4.2	1.1	-6.2	5642
COC(=O)CCC(=O)N1CCc2cc(S(=O)(=O)N3CCN(c4ccccc4Cl)CC3)ccc21	x	x	x	6.4	2.2	-9.5	3585
Cc1c(Cl)cccc1N1C(=O)NC(=O)/C(=C\c2cc(C)n(-c3cccc(C(=O)O)c3C)c2C)C1=O	-3.8	-1.2	-2.5	6.7	-1.1	-3.0	x
Cc1cc(C(=O)NC2CCCc3c2cnn3-c2ccccc2F)nc(C)n1 (configuration not stated)	-2.6	1.8	0.9	-1.2	-0.8	-28.3	5517
CSCCC(NS(=O)(=O)c1ccc(Cl)cc1)C(=O)OCC(=O)c1ccc(F)cc1 (configuration not stated)	-10.7	0.2	-8.9	1.0	8.3	-7.9	2432
COc1ccc(OC)c(C2c3c(oc4ccccc4c3=O)C(=O)N2CCCN(C)C)c1 (configuration not stated)	3.8	19.1	13.2	-3.9	-9.7	-25.4	2988
Cc1ccc(-c2nc(CS(=O)(=O)CC(=O)N3CCc4ccccc4C3)c(C)o2)cc1	-29.1	x	x	-2.1	0.9	0.4	6091
COc1ccc(OC)c(NS(=O)(=O)c2ccc3c(c2)C(C)(C)C(=O)N3C)c1	-8.1	x	x	-12.8	6.1	-8.1	6100
CCOc1ccccc1N(CC(=O)NC1CCCCC1)S(=O)(=O)c1ccccc1	2.5	3.4	-5.6	5.5	6.9	-3.3	2989
CCOC(=O)COc1ccccc1/C=C1/NC(=O)NC1=O	-14.8	10.7	-0.9	5.1	1.6	-33.0	2458
CC(Sc1ncnc2sc(-c3ccccc3)cc12)C(=O)NCC1CCCO1 (configuration not stated)	5.4	7.3	11.3	-6.1	7.0	-8.2	4946
CCOC(=O)c1cnc2ccccc2c1NCCO	0.6	x	x	-2.3	4.2	1.0	3598
O=C(N/C(=C/c1cccnc1)C(=O)N1CCOCC1)c1ccccc1Cl	-1.8	6.0	6.4	7.8	3.6	-19.6	3487
CCN(CC)Cc1c(C(=O)N/N=C/c2cccs2)nnn1-c1nonc1N	-2.1	x	x	x	x	-10.3	2993
O=C1C(Cl)=C(N2CCOCC2)C(=O)N1c1ccccc1F	-11.2	5.2	20.9	-0.9	4.5	-2.0	3947
COc1cnc(-c2ccccn2)nc1Sc1ccc(C)cc1	-4.7	19.9	18.7	1.4	4.4	-9.8	3964
CCn1c(SCC(=O)c2ccc(Br)cc2)nnc1C(C)NC(=O)Cc1ccc(OC)cc1 (configuration not stated)	6.9	6.2	0.5	-12.2	-0.6	-2.7	17649*

# Of the compounds above, three have a cyano group:
Molecule	BJeLR lethal	Mtb hypoxia inh	Mtb hypoxia inh growth	Sa ugtP lethal	RN4220 kill	PrP UTR inh	Autofluor counter
N#Cc1sc2nc(-c3cccs3)cc(-c3ccc(F)cc3)c2c1N	3.3	4.1	-5.3	-19.6	5.8	-34.3	9276
N#Cc1ccc(-c2nc3ccc(Br)cc3c(=O)n2O)cc1	-6.3	3.6	-4.9	10.9	24.6	-22.5	4160
CC(C)CN1CCC(=O)N(CCC#N)CC1	-5.6	6.8	5.4	-12.3	3.6	-4.5	2906

# More records
Molecule	BJeLR lethal	Mtb hypoxia inh	Mtb hypoxia inh growth	Sa ugtP lethal	RN4220 kill	PrP UTR inh	Autofluor counter
Cc1ccc(C2=NS(=O)(=O)N(C)C(C(=O)N3CCOCC3)=C2)cc1	-3.3	-2.4	0.3	4.5	9.2	1.9	5998
O=C(NCc1ccccc1Cl)C1CCCN1S(=O)(=O)c1ccccc1F (configuration not stated)	-3.1	-3.7	3.4	-3.7	-1.6	4.2	4411
COC(=O)c1ccccc1C(=O)N(Cc1cccnc1)CC1CCCN(C2CCCCC2)C1 (configuration not stated)	9.7	-7.3	8.0	-0.5	1.2	2.7	7852
O=C1CCC=CCC(CC(=O)N(CCO)Cc2ccccc2)C(=O)NC(Cc2c[nH]c3ccccc23)CO1 (configuration not stated)	x	6.9	4.0	0.2	2.3	x	x
CCOC(=O)C1CCCN(C(=O)COc2ccc(N(C)S(=O)(=O)c3ccc(C)cc3)cc2)C1 (configuration not stated)	13.2	3.5	-8.3	-2.7	3.3	-27.0	4644
O=C(CSc1nncs1)Nc1ccc(Cl)cc1C(F)(F)F	2.4	4.4	9.8	1.3	2.0	-22.9	5735
O=C(NC1CCCC1)C(c1ccccc1)N(C(=O)c1ccco1)C1CCCC1 (configuration not stated)	1.6	1.9	4.1	-0.4	-0.5	-22.3	7598
CN(C)c1ccc(C2NC(=O)c3ccccc3N2)cc1 (configuration not stated)	-13.1	-2.0	16.6	1.0	-1.3	-56.8	3274
CCOC(=O)CN1C(=O)C(=O)c2cc(C)ccc21	-8.9	14.5	8.1	-3.5	3.1	2.5	3157
O=C(NC1CCN(C(=S)NCc2ccco2)CC1)c1ccc(F)cc1	-2.5	4.3	4.1	3.6	1.3	-11.8	9005
Nc1c(C(=O)NCc2ccco2)nnn1CC(=O)Nc1ccccc1	0.2	-3.4	4.3	0.6	3.3	-3.2	3828
O=C(Nc1ccc(N2CCCC2)cc1)c1ccc2ccccc2c1	-6.6	7.8	7.9	-0.1	7.4	-61.8	2437
CC(OC(=O)C1=COCCO1)C(=O)c1ccc(C(C)(C)C)cc1 (configuration not stated)	x	2.7	2.4	3.2	6.5	-0.6	6580
CCOC(=O)c1ccc(NC(=O)CSC(=S)N2CCOCC2)cc1	-0.5	8.4	4.1	4.8	-0.1	-16.3	2122
COc1ccccc1Nc1nc2ccc(C)cc2n2cnnc12	0.6	-4.1	0.6	-11.5	5.7	-25.1	3576
O=C(O)Cn1c(SCCOc2ccccc2F)nc2ccccc21	-3.1	x	x	-6.3	0.8	-9.9	2841
Cc1ccc(S(=O)(=O)N2CCC(C(=O)NCCC3=CCCCC3)CC2)cc1C	0.7	2.9	-1.0	0.2	0.5	-17.7	x
CCOc1ccc(NS(=O)(=O)c2ccc3c(c2)CCN3C(=O)C2CCC2)cc1	-0.7	10.5	10.3	14.0	2.2	-26.1	12812
COc1ccccc1NC(=O)CSc1nncn1N	-1.5	11.5	-3.0	-2.9	1.5	-3.9	2964
CC(=O)c1ccc(NC(=S)N2CCN(c3cccc(Cl)c3)CC2)cc1	-1.9	1.6	-2.9	-1.0	4.4	-19.1	4747
CCCCCC(=O)Nc1ccc(C(=O)CN2C(=O)NC3(CCCCCC3)C2=O)cc1	-6.3	7.5	2.9	0.7	-0.1	-60.6	u
O=C(CCn1c(=O)c2cccn2c2cccnc21)NCc1cccc(Cl)c1	6.7	0.9	3.4	3.4	3.4	-3.2	4941
CC#CCN1c2ccccc2[C@]23CC(C(=O)OC)N(C(=O)OCC)C2=NC(C(=O)OC)=C(C(=O)OC)C13 (some centres not stated)	x	0.9	-7.7	0.9	3.6	x	x
CCOC(=O)/C(C#N)=C/c1c(N2CCN(c3ccc(OC)cc3)CC2)nc2c(C)cccn2c1=O	8.6	5.3	6.6	7.1	-2.1	-10.8	3463
O=C(NCc1ccc2c(c1)OCO2)C1CCC(CNS(=O)(=O)c2ccc(Cl)cc2)CC1 (configuration not stated)	-0.9	0.0	-6.7	0.0	-2.1	1.3	8748
c1ccc(N2CCN(Cc3cn4cccnc4n3)CC2)cc1	-11.9	5.7	11.8	-4.9	-5.6	-29.3	6544
Cc1ccc(C(=O)NNC2=NC(C)(C)Cc3ccccc32)cc1	-1.9	-2.3	-6.9	7.2	3.8	-27.4	4297
O=S(=O)(NC1CCCCCCC1)c1ccccc1	-2.9	9.8	-1.5	7.5	8.7	-13.2	3143
CCOC(=O)c1ccc(NC(=O)COC(=O)c2cccc(Oc3ccccc3)c2)cc1	3.2	19.5	3.4	-5.5	-8.9	-6.7	2415
CN(C)c1ccc(/C=N/NC(=O)CCC(=O)NCc2ccccc2)cc1	1.6	x	x	x	x	-41.4	2142
COc1ccc(N2CCN(C(CNC(=O)Oc3ccccc3)c3cccnc3)CC2)cc1 (configuration not stated)	1.6	6.9	9.3	0.8	4.1	-10.8	10836

# Some of these compounds in order of length of the SMILES, lowest first.
Molecule	BJeLR lethal	Mtb hypoxia inh	Mtb hypoxia inh growth	Sa ugtP lethal	RN4220 kill	PrP UTR inh	Autofluor counter
O=S(=O)(NC1CCCCCCC1)c1ccccc1	-2.9	9.8	-1.5	7.5	8.7	-13.2	3143
Cc1ccc(C(=O)NNC2=NC(C)(C)Cc3ccccc32)cc1	-1.9	-2.3	-6.9	7.2	3.8	-27.4	4297
O=C(NCc1ccc2c(c1)OCO2)C1CCC(CNS(=O)(=O)c2ccc(Cl)cc2)CC1 (configuration not stated)	-0.9	0.0	-6.7	0.0	-2.1	1.3	8748
